Cruzain inh Det = blocks cruzain activity in presence of Triton detergent; P25779; Potency, µM, without a hit: max response, negative = inhibition, actives largely listed as inhibitors; AID 1478; purified cruzain, Z-FR-AMC fluorescence, 0.01% Triton; actives 0.43% (n = 200,000);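 note: plate controls were neutral wells for no effect and buffer without enzyme for full effect; nearly all actives have a fitted effect of over 40% in size; top concentration of the series not given in the record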
Target sequence (P25779 123-467 limits assumed): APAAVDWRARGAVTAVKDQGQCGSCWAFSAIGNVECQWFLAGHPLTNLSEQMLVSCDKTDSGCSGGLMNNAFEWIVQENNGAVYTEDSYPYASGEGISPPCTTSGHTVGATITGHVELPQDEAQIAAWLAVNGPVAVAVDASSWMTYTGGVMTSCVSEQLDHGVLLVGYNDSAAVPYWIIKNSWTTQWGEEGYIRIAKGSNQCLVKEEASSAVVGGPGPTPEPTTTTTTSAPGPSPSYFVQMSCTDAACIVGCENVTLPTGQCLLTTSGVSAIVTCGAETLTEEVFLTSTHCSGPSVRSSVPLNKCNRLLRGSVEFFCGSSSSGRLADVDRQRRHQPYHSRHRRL
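Detergent-containing arm of a paired screen for aggregation-based inhibition: 0.01% Triton X-100 present. Cruzain at 1.5 nM cleaved 2 uM Z-FR-AMC at pH 5.5 with 5 mM DTT; AMC fluorescence gain over 60 s measured activity.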
Cruzain inh noDet = blocks cruzain activity in detergent-free assay; AID 1476; actives 2.3% (n = 200,000); Potency, µM, for inactives: max response, negative = inhibition, hits mostly inhibitors; purified cruzain, Z-FR-AMC fluorescence, no detergent; P25779;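 note: plate controls were enzyme without inhibitor for no effect and buffer without enzyme for full effect; nearly all actives have a fitted effect of over 40% in size; top concentration of the series not given in the record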
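Detergent-free condition (0.00005% Triton X-100) in acetate buffer pH 5.5 with DTT. 1.5 nM enzyme and compound were pre-mixed 15 min, then 2 uM Z-FR-AMC substrate added; reaction progress from fluorescence change between first and third reads (60 s).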
NS1 function inh = influenza NS1 inhibition. AID 2326. actives 0.4% (n = 270,000). Potency, µM (highest dose often 46.1 µM), for inactives: top-dose activity, positive = more growth. S. cerevisiae slowed by influenza A NS1, growth recovery by OD600; active means well fitted rising curve with a large enough effect; inconclusive means small, poorly fitted or top-dose-only effect; inactive means no such curve, though single readings can be large or run the other way; note: nearly all actives have a fitted effect of over 50% in size
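Compounds were scored for reversing the slow growth caused by influenza A NS1 in S. cerevisiae, measured by optical density at 600 nm. Assay medium contained 2% galactose at pH 6.0; NS1-free yeast of the same strain were the positive control.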
2A StopGo = lowers the luciferase signal of an FMDV 2A StopGo reporter; human cells with a luciferase reporter of 2A StopGo recoding; control for the full effect not named in the record; Potency, µM (highest dose often 57.9 µM), inactives show at the top dose signal change, negative = less light; actives 1.2% (n = 410,000); active = well fitted falling curve with a large enough effect; inconclusive = small, poorly fitted or top-dose-only effect; inactive = no such curve, though single readings can be large or run the other way; tested in HEK293T cells; note: % is set by controls: 0 for no effect and ±100 for the full control effect; nearly all actives have a fitted effect of over 45% in size; luciferase light after 4 h
RE007 growth inh = less growth of the S. pombe RE007 Vpr strain; Potency, µM (doses to about 92.2 µM), inactives show at the top dose activity change, negative = less growth; S. pombe RE007 Vpr strain, BacTiter-Glo ATP luminescence, 24 h; control for the full effect not named in the record; actives 0.21% (n = 360,000); active = well fitted falling curve with a large enough effect; inconclusive = small, poorly fitted or top-dose-only effect; inactive = no such curve, though single readings can be large or run the other way;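 note: % is set by controls: 0 for no effect and ±100 for the full control effect; nearly all actives have a fitted effect of over 50% in size; the assay follows cell death caused by Vpr and the record does not say whether a fall means rescue or toxicity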
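Fission yeast strain RE007, carrying one chromosomally integrated HIV-1 vpr copy, was seeded at OD 0.01 in PMG+AL medium with 23 nL pinned compound. After 24 h at 30 °C and 99% humidity, viability was read by BacTiter-Glo luminescence.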
MARV entry inh = Marburg virus entry inhibition; Marburg virus pseudotyped entry inhibition, cell reporter; control for the full effect not named in the record; about a third of the inactives were read at about 46 µM; Potency, µM (titrated, usually from 37.8 µM), inactives show top-dose activity change, negative = inhibition, actives largely listed as inhibitors; actives 1.8% (n = 300,000); active = well fitted inhibition curve with a large enough effect; inconclusive = small, poorly fitted or top-dose-only effect, or effect the other way; inactive = flat fitted curve, though single readings scatter; tested in HEK293 cells; about a fifth of its hits are not listed in these tables; note: % is set by controls: 0 for no effect and ±100 for the full control effect; luciferase read-out
Lassa entry inh = Lassa virus entry inhibition | Lassa virus pseudotype entry inhibition, cell reporter; control for the full effect not named in the record | Potency, µM (highest dose often 37.9 µM), for the others: top-dose activity change, negative = inhibition, actives largely listed as inhibitors | actives 1.2% (n = 300,000) | AID 540256; active means well fitted inhibition curve with a large enough effect; inconclusive means small, poorly fitted or top-dose-only effect, or effect the other way; inactive means flat fitted curve, though single readings scatter; tested in HEK293 cells; note: % is set by controls: 0 for no effect and ±100 for the full control effect; nearly all actives have a fitted effect of over 50% in size; luciferase read-out
SARS PLpro yeast = inhibitors of SARS-CoV papain-like protease in yeast; S. cerevisiae expressing SARS-CoV PLpro, growth rescue; control for the full effect not named in the record; Potency, µM (doses to about 32.9 µM), without a hit: at the highest dose activity, positive = growth rescue; actives 0.19% (n = 330,000); active means well fitted rising curve with a large enough effect; inconclusive means small, poorly fitted or top-dose-only effect; inactive means no such curve, though single readings can be large or run the other way; note: 0% is about no effect; nearly all actives have a fitted effect of over 55% in size; growth read by luminescence after 48 h
* = called active by the depositor; ? = inconclusive; nt = no result given; [ ] = another dose, or the depositor's remark. Unless noted, calls come from the whole dose curve; as a rule, active = well fitted curve in the direction sought with a large enough effect; inconclusive = small, poorly fitted or top-dose-only effect, or another doubt; inactive = no such curve, though single readings can be large; an effect the other way counts as inactive or inconclusive. Potency is the fitted concentration of half-maximal effect.

Under each structure – Cruzain inh Det, Cruzain inh noDet, NS1 function inh, 2A StopGo, RE007 growth inh, MARV entry inh, Lassa entry inh, SARS PLpro yeast
1	Cc1ccc(CCNC(=O)CN(C)S(=O)(=O)c2cnc[nH]2)cc1
  -5.6%, -1%, -5%, 6%, 5%, ?, 5%, 4%
2	C[C@H](NC(=O)[C@H]1N2C(=O)c3ccccc3C2SC1(C)C)C(=O)N1CCN(C)CC1 (stereo not given in full)
  nt, nt, -9%, 9%, -9%, -9%[46.1 µM], 1%[46.1 µM], 14%
3	Cc1nn(-c2ccc(N3CCCCC3)nn2)c(C)c1CCC(=O)Nc1ccc(F)c(F)c1
  nt, nt, ?, -25%, 2%, ?, ?, -33%
4	CCOC(=O)c1cc2sc(C)cc2n1CC(=O)N(CC)CC
  -2.3%, 10%, -4%, 4%, 15%, 6%, -1%, 0%
5	CC1CN=C(N(C(=O)Nc2ccccc2)c2ccc(F)cc2)S1 (stereo not given)
  -2.6%, -8%, 0%, -18%, 8%, nt, nt, 0%
6	CC[C@]12c3[nH]c4ccc(Cl)cc4c3CCN1C(=O)[C@@H](CC(=O)NCCC1=CCCCC1)C[C@@H]2C(=O)N1CCN(C(=O)c2ccco2)CC1
  nt, nt, nt, ?, 1%, -7%, nt, -13%
7	Cc1ccc(C)c(NC(=S)Nc2cccc3cnccc23)c1
  nt, nt, -3%, -21%, ?, ?, 1%[46.1 µM], -2%
8	CCCCP(=O)(CCCC)Cc1ccccc1O
  4.3%, -1%, -6%, -11%, 17%, -7%[46.1 µM], 27%, 3%
9	Cc1sc2ncnc(SCc3ccc(C(=O)O)cc3)c2c1C
  nt, nt, -1%, 27%, 9%, nt, nt, 5%
10	Cc1ccc(NC(=O)c2cc([N+](=O)[O-])ccc2Cl)c(O)c1
  nt, nt, -5%, -22%, 14%, -20%[14.2 µM], -7%, 0%
11	CCN(Cc1ccccc1)C(=O)c1c(-c2ccccc2Cl)noc1C
  nt, nt, -13%, -24%, -3%, ?, 2%[46.1 µM], 9%
12	Cc1c(C(=O)N(C)C)sc2c1c(=O)n(-c1ccccc1C(F)(F)F)c(=O)n2Cc1ccccc1C#N
  0.3%, -15%, nt, -17%, nt, nt, -3%[46.1 µM], nt
13	OCCN(Cc1ccccc1)Cc1cccc(C(F)(F)F)c1
  -1.3%, 9%, 11%, -11%, -18%, -2%, ?, nt
14	O=C(O)c1cccc(S(=O)(=O)N(Cc2ccccc2)c2ccccc2Cl)c1
  nt, nt, 5%, 25%, 5%, -1%[46.1 µM], -3%[46.1 µM], 2%
15	Cc1ccc(C(=O)C2CCN(CC(=O)NC3CCCCC3)CC2)cc1
  -0.6%, 1%, -3%, -23%, 2%, -5%, -4%, 4%
16	COC(=O)c1ccc(C)cc1C1CN=NC12Cc1cc(C)ccc1C2=O (stereo not given)
  nt, nt, nt, 0%, 7%, -13%, -9%, nt
17	O=C(c1cccc(S(=O)(=O)N2CCN(c3ccccc3)CC2)c1)N1CCN(c2ccccc2O)CC1
  nt, nt, nt, -22%, 7%, 1%[46.1 µM], -10%, 0%
18	COCC(=O)OC/C(O)=C(\C#N)c1nc2ccccc2[nH]1
  nt, nt, -1%, ?, -12%, ?, ?, -1%
19	Cc1cccc(NC(=O)NC2CCCc3ccccc32)c1 (stereo not given)
  nt, nt, -15%, 2%, -3%, ?, ?, 6%
20	COc1ccccc1CNC(=O)C(Cc1ccccc1)NS(=O)(=O)c1ccc2c(c1)oc(=O)n2C (stereo not given)
  0.4%, -15%, nt, 10%, nt, ?, -2%[46.1 µM], nt
21	Cc1cc(OCC(=O)Nc2ccc(Br)cc2)cc2c1C(=O)CC(C)(C)O2
  nt, nt, -3%, -7%, 1%, ?, ?, -2%
22	O=C(Nc1ccc(F)cc1)Nc1cccnc1Cl
  nt, nt, -3%, 17%, 0%, ?, ?, -5%
23	CCC(Sc1ccc2nnc(-c3ccc(F)cc3)n2n1)C(=O)OC (stereo not given)
  -11%, -6%, -3%, 0%, 12%, 11%, 2%, -8%
24	Cc1[nH]n(-c2ccccc2)c(=O)c1C(C[N+](=O)[O-])c1ccc(Br)cc1 (stereo not given)
  -4.5%, -19%, -102%, ?, 10µM*, 0%, ?, -40%
25	C(=N\n1cnnc1)/c1cn(-c2cccs2)nc1-c1ccccc1
  -8.9%, ?, -14%, nt, 5%, 1%, -3%, -1%
26	Cc1ccc(CN2c3ccccc3-c3nc(SCC(=O)NCCc4ccccc4)ncc3S2(=O)=O)cc1
  1.9%, -13%, nt, -10%, nt, nt, -7%[46.1 µM], nt
27	Cn1cc(-c2ccno2)c(C(=O)O)n1
  nt, nt, nt, -2%, -1%, 19%[46.1 µM], 13%, -6%
28	CCc1cc(=O)oc2c(C)c(OCC(=O)Nc3ccc(S(=O)(=O)N(CC)CC)cc3)ccc12
  -2.4%, -13%, nt, -16%, nt, -12%[46.1 µM], -3%[46.1 µM], nt
29	Cn1cc(Cl)c(C(=O)NNC(=S)NCc2ccco2)n1
  nt, nt, nt, -3%, 0%, 5%, 3%, 3%
30	CCOC(=O)C1CCCN(CC(O)COc2ccccc2C(C)=O)C1 (stereo not given)
  1.8%, -21%, -1%, -13%, 0%, -8%, -1%, 0%
31	CN(CC(=O)N1CCCCC1)S(=O)(=O)c1ccc(Cl)cc1
  nt, nt, 1%, 2%, -11%, 2%[46.1 µM], 11%[46.1 µM], -1%
32	COc1ccc(Cl)cc1NC(=O)c1oc(C)nc1C
  1.9%, -5%, -12%, 2%, 9%, -3%, 22%, -11%
33	CCOC(=O)c1c(C)nc2sc3c(=O)n(-c4ccc(C)cc4)cnc3c2c1-c1ccc(OC)cc1
  3.8%, -1%, -4%, 3%, 23%, 5%, ?, -3%
34	COc1ccc(-c2nc(CS(=O)(=O)CC(=O)NCc3cccc(Br)c3)c(C)o2)cc1
  nt, nt, 22%, ?, 4%, nt, nt, -15%
35	CCCCn1c(NC(C)=O)c(C#N)c2nc3ccccc3nc21
  -25%, ?, -36%, 1%, 0%, -18%[46.1 µM], 0%, -5%
36	CCCCSc1nc(C)[nH]c1[N+](=O)[O-]
  -0.8%, 8%, 5%, -5%, -12%, 12%, 21%, -5%
37	O=C(NC1CCCCC1)/C(=N\O)c1ccccn1
  5.7%, -12%, 1%, nt, 11%, 10%, 18%, ?
38	Cc1ccc(C(=O)NCCCNC(=O)c2ccccc2C)cn1
  nt, nt, -11%, -19%, -2%, -10%[46.1 µM], 0%, 3%
39	Cc1cc2nc3n(c2cc1C)CCCN3
  nt, nt, -31%, -2%, 4%, nt, nt, -4%
40	C#CC[N+]1(CC#Cc2ccccc2)CCOCC1
  3.4%, -9%, -8%, -5%, 1%, -1%, 25%, 2%
41	O=C(Nc1cnccn1)c1ccc(F)cc1Cl
  nt, nt, -15%, 2%, 5%, nt, nt, 2%
42	CCN(C(=O)CSc1nc2cc(S(=O)(=O)N(CC)CC)ccc2o1)C1CCS(=O)(=O)C1 (stereo not given)
  nt, nt, 12%, 17%, -8%, nt, nt, -2%
43	CC1CCCCN1CCNS(=O)(=O)c1ccc2c(c1)oc(=O)n2C (stereo not given)
  1.7%, -5%, -4%, -3%, -6%, 6%, 14%, -1%
44	COc1cc(OC)cc(C(=O)NC(C(=O)N2CCC2)C(C)C)c1 (stereo not given)
  nt, nt, nt, -1%, 10%, 3%, 16%, 6%
45	CC(C)CCNC(=S)Nc1ccc([N+](=O)[O-])cc1
  -19%, -2%, -36%, 12%, -12%, ?, ?, -88%
46	Cc1nnsc1C(=O)NNc1ccc(C(C)C)cc1
  nt, nt, -4%, 44%[activator], 4%, 2%[14.2 µM], -2%, -1%
47	CCOC(=O)c1cc2c(=O)n3ccccc3nc2n(CCOC)c1=NC(=O)c1cc2ccccc2o1
  7.3%, 18%, nt, 21%, nt, ?, -3%[46.1 µM], nt
48	N/C(=N\OS(=O)(=O)c1ccc(Cl)cc1)c1ccccn1
  nt, nt, nt, 0%, 3%, ?, -20%, 6%
49	O=C(C1CCN(S(=O)(=O)c2ccc(Br)s2)CC1)N1CCN(c2cccc(Cl)c2)CC1
  -2.7%, -21%, nt, -29%, nt, -18%[46.1 µM], ?, nt
50	Cc1cccc(Cc2cnc(NC(=O)CN3C(=O)/C(=C/c4ccccc4)SC3=S)s2)c1
  -5.3%, ?, ?, -23%, 13%, 8%, -9%, -3%
51	CCC(C)C(NC(=O)C1CCC(C)CC1)C(=O)NC(CCSC)C(=O)OC (stereo not given)
  -3.2%, 1%, 5%, -22%, 25%, ?, 18%, 7%
52	CC(=O)c1ccc(N2CCN(c3ncnc4onc(C)c34)CC2)cc1
  -0.6%, 18%, nt, ?, nt, nt, 25%[46.1 µM], nt
53	FC(F)(F)c1cccc(Cn2c3[n+](c4ccc(C(F)(F)F)cc42)CCCCC3)c1
  nt, nt, -2%, -21%, -20%, ?, -1%, 1%
54	O=C(C1CCN(S(=O)(=O)c2ccc(F)cc2)CC1)N1CCCC(C(F)(F)F)C1 (stereo not given)
  nt, nt, nt, -20%, 4%, -8%, 1%, 4%
55	CCOc1ccc(S(=O)(=O)N2CCOCC2)cc1NC(=O)c1ccc(N2CCCC2=O)cc1
  nt, nt, nt, -9%, -9%, ?, 11%, -1%
56	CCc1c(-c2ccccc2)nc2nc(C)c(C)nn12
  -2.0%, 2%, -46%, 16%, -3%, nt, nt, 7%
57	C=CC[n+]1c(C)csc1Nc1ccc(C)cc1
  nt, nt, nt, 36%[activator], -8%, 23%[46.1 µM], 2%, 3%
58	CCNC(=S)N/N=C/c1cccc(OCc2c(F)cccc2Cl)c1
  -3.9%, -25%, 12%, ?, nt, ?, 9.2µM*, 6%
59	Cc1ccc(C)c(S(=O)(=O)N2CCC(c3nc4c(nnn4Cc4ccc5c(c4)OCCO5)c(=O)[nH]3)CC2)c1
  nt, nt, 24%, -2%, 10%, nt, nt, 8%
60	Cc1cc(C)nc(SCCn2c(N3CC(C)OC(C)C3)nc3c2c(=O)n(C)c(=O)n3C)n1 (stereo not given)
  nt, nt, nt, 2%, 1%, 22%[46.1 µM], ?, -6%
61	O=C(N/N=C/c1ccccc1Cl)c1ccc(F)cc1
  -1.5%, -8%, -16%, 1%, 0%, -14%, 7%, ?
